Tgondii IFNg = T. gondii growth inhibition with IFN-gamma, primary screen, cell-based. Toxoplasma gondii growth in IFN-gamma-treated host cells; stronger effect = lower value; reference of the scale not given here. activity change, negative = inhibition, %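 (about 20 µM by stock and volumes)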. 69,000 tested, 3.8% active. AID 1259416, 2018;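 active = below -70%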;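 note: host cells are HeLa cells infected with Toxoplasma gondii; parasite growth read as luciferase light; one replicate is shown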
An asterisk follows results filed as active; i = inactive; & = joins results of further samples. These rows are one share of the data; rates above refer to the full screens.

smiles	Tgondii IFNg
CCS(=O)(=O)Nc1ccc2c(c1)C(=O)N(C)[C@@H]1CC[C@@H](CC(=O)N[C@H]3CCN(Cc4ccccc4)C3)O[C@H]1CO2	10
Cc1oc(-c2ccccc2)nc1Cn1nnc(-c2nc(-c3cccc(F)c3)no2)c1C	-4
CO[C@H]1CN(C)C(=O)c2cc(NC(=O)C3CC3)ccc2OC[C@H](C)N(Cc2cc(F)ccc2F)C[C@H]1C	-58
O=C(NCC(F)(F)F)c1c2c(-c3ccccc3)ncnc2n2ccccc12	-10
CCOC(=O)Cc1csc(NC(=O)Cn2nnc3ccccc3c2=O)n1	-41
Cc1ccc(Nc2nc(C(=O)N3CCOCC3)nc3ccccc23)cc1	65
CCOC1CC2(CCN(c3cnccn3)CC2)c2ccccc21 (stereo unspecified)	11
CC(=O)N1[C@@H](CO)[C@@H](c2ccccc2)[C@@H]1CN(C)S(=O)(=O)c1ccccc1	8
NS(=O)(=O)c1ccc(C(=O)O)cc1	8&18
O=C1c2ccccc2C(=O)N1Cc1cccnc1	22
Cc1nnsc1C(=O)Nc1ccc(C(=O)OC2CCCC2)cc1	79
CCN(CC)C[C@@H]1OC[C@@H]2CCN(C(=O)c3ccccn3)C[C@@H]21	-10
C=CCN1CCN(Cc2cc3n(n2)CCNC3)CC1	-5
Cc1nnnn1CCc1nc(C(C)C)nn1-c1ccccc1Cl	-3
COc1ccc(-c2nc(C)c(CCNC(=O)c3ccc(C)cc3)s2)cc1OC	i
Cc1cncc(C(=O)N2CCC3(C2)CN(c2ccccc2)C(=O)CN3C)c1 (stereo unspecified)	3
COCCC(=O)c1ccc2nnc3nc(C)n(Cc4ccccc4)c3c2c1	-16
C[C@@H](NC(=O)C[C@@H]1CC[C@@H]2[C@H](COc3ccc(NC(=O)C4CCOCC4)cc3C(=O)N2C)O1)c1ccccc1	13
COc1ccc2cc(Br)ccc2c1CC#N	-107*
COc1ccc2c(c1)NC1(CCN(C(=O)Nc3cc(Cl)ccc3C)CC1)c1cccn1-2	135
NC(=O)c1nc2c(s1)CCNCC2	-5
O=C(CN1C(=O)CNC1=O)Nc1ccc(Cl)cc1	7
Nc1cc(F)ccc1N1CCCCCC1	3
Nc1cc2c(cc1-n1cccc1)OCCO2	3
COc1ccc(S(=O)(=O)NCCc2sc(-c3ccccc3)nc2C)cc1F	143
COc1ccc(NC(=S)NCCc2c[nH]c3ccccc23)cc1	72
CCCCNC(=O)CCC1N=C2c3ccccc3N=C(SCC#N)N2C1=O (stereo unspecified)	29
CN(C)Cc1cc(C2CCCN2S(=O)(=O)N2CCOCC2)nn1C (stereo unspecified)	6
Cn1cc(N2C[C@@H]3CN(c4ccccn4)C[C@H]3C2=O)cn1	-87*
COc1ccc(-n2c(Cn3cccn3)n[nH]c2=O)cc1	-2

Among those listed so far, 2 contain a cyano group.
smiles	Tgondii IFNg
COc1ccc2cc(Br)ccc2c1CC#N	-107*
CCCCNC(=O)CCC1N=C2c3ccccc3N=C(SCC#N)N2C1=O (stereo unspecified)	29

(listing goes on)
smiles	Tgondii IFNg
O=C(CN1C(=O)CCc2cc(S(=O)(=O)N3CCCCC3)ccc21)NCCc1ccccc1	-32
Cc1ccc(SCCN(C)C(=O)CCc2cc(=O)[nH]o2)cc1	4
COCCCN1CC(C(=O)Nc2ccc3c(c2)N(C)C(=O)CO3)CC1=O (stereo unspecified)	4
CCc1c(C)nn(CC(=O)N2CCC(c3nn(C)c(=O)n3CC)CC2)c1C	2
CCCCc1ccc(-n2c(-c3ccc(F)cc3)coc2=O)cc1	-26
CC(NC(=O)c1cn2c(n1)CCCC2)c1ccc(F)cc1 (stereo unspecified)	0
C[C@@H]1CN([C@H](C)CO)C(=O)c2cc(-c3cccc(C#N)c3)cnc2O[C@@H]1CN(C)C(=O)C1CCOCC1	83
COc1cccc(COC2CN(Cc3ccccn3)C(=O)CN(C(=O)c3csc(C(C)=O)c3)C2)c1 (stereo unspecified)	-40
COC(=O)[C@@H]1C[C@H](NC(=O)Nc2ccc(OC)c(Cl)c2)CN1C	5
CN(CCC#N)C(=O)c1cc2cccnc2n(Cc2ccccc2)c1=O	27
Cc1ccc(O[C@@H]2C[C@@H]3CN(C(=O)c4cccn4C)CCN3C2)cc1	-47
CC1CCN(S(=O)(=O)c2ccc3c(c2)CCC(=O)N3CC(=O)Nc2cccc(F)c2)CC1	-11
Cc1occc1C(=O)N1CCCC2(COCCN(c3cccnc3)C2)C1 (stereo unspecified)	-40
COc1ccc(CCNC(=O)C2=C(C)C(=O)OC23CCN(S(=O)(=O)c2cccs2)CC3)cc1OC	16
CC(C)[C@@H]1C(=O)N[C@H](c2cccc(Cl)c2)CC=CC[C@@H](C)Oc2ccccc2C(=O)N1C (mixture of isomers)	9
CCOc1ccc(-c2nc(CN(c3ccccc3OC)S(=O)(=O)c3ccc(C)cc3)c(C)o2)cc1	-43
CN(C)S(=O)(=O)c1ccc2c(c1)cc(C(=O)NCc1ccc3c(c1)OCO3)n2Cc1ccncc1	61
CCCN1C(=O)CCc2cc(NC(=O)c3cc(Cl)ccc3OC)ccc21	-93*
CCCC(=O)Nc1ccc(CC(=O)N2CCC[C@H]2C(N)=O)cc1	1
CCOc1ccccc1NC(=O)CN1CCC2(CC1)N=C(c1ccc(C)c(C)c1)C(=O)N2	-12
C=CCN(Cc1cccnc1)Cc1ccccc1C	4
O=C(Cn1ncc2c(N3CCOCC3)ncnc21)Nc1ccc(F)cc1	28
NC1(C(=O)NCC2CCN(Cc3nc4ccccc4[nH]3)CC2)CC1	5
Cc1ccc(S(=O)(=O)N2CSC[C@@H]2C(=O)NCCc2csc(-c3ccccc3)n2)cc1	-34
COc1ccc(C(=O)N2CCCC3(C2)Nc2cccnc2NC3=NCc2ccccc2)cn1 (stereo unspecified)	189
CC(C)C(NCc1nc(Cc2ccccc2F)no1)c1ncnn1C (stereo unspecified)	-3
CC(=O)N1CCc2c([nH]c3ccccc23)C12C(=O)N(CCC(C)C)c1ccccc12 (stereo unspecified)	43
CCc1[nH]c2c(CNc3cc(N4CCOCC4)ncn3)cc(C)cc2c1C	-5
CCCCCN(C)CCC(O)(P(=O)(O)O)P(=O)(O)O	-44
CN(C)CCN1C(=O)CC2C1CCN2C(=O)c1ccc[nH]1 (stereo unspecified)	4

No new results follow: 3 of the compounds above.
smiles	Tgondii IFNg
CCS(=O)(=O)Nc1ccc2c(c1)C(=O)N(C)[C@@H]1CC[C@@H](CC(=O)N[C@H]3CCN(Cc4ccccc4)C3)O[C@H]1CO2	10
Cc1oc(-c2ccccc2)nc1Cn1nnc(-c2nc(-c3cccc(F)c3)no2)c1C	-4
CO[C@H]1CN(C)C(=O)c2cc(NC(=O)C3CC3)ccc2OC[C@H](C)N(Cc2cc(F)ccc2F)C[C@H]1C	-58

3 of the compounds above, with each value named:
> Cc1occc1C(=O)N1CCCC2(COCCN(c3cccnc3)C2)C1 (stereo unspecified)
  Tgondii IFNg: -40
> COc1ccc(CCNC(=O)C2=C(C)C(=O)OC23CCN(S(=O)(=O)c2cccs2)CC3)cc1OC
  Tgondii IFNg: 16
> CC(C)[C@@H]1C(=O)N[C@H](c2cccc(Cl)c2)CC=CC[C@@H](C)Oc2ccccc2C(=O)N1C (mixture of isomers)
  Tgondii IFNg: 9

More entries follow.
smiles	Tgondii IFNg
Cn1cnnc1SCC(=O)Nc1ccc(Br)cn1	42
CC(C)n1cnc2c(-c3cnn(C)c3)nc(C3CCN(C(=O)c4cccnc4)CC3)cc21	-16
CCN(CC)C(=O)c1cc(=O)n(CC(=O)Nc2ccc3c(c2)OCO3)c2ccccc12	-32
Cc1ccccc1NC(=O)N1C[C@@H](O)[C@H](NCCN2CCNC2=O)C1	13
COC(=O)c1ccc(NC(=O)CCN2CC(N3CCCCC3C)C2)cc1 (stereo unspecified)	-3
C[C@@H]1CN(Cc2ccccc2F)CCN1Cc1ccc(-c2nc3ccccc3s2)o1	147
CCC(C)NCCOc1ccccc1C (stereo unspecified)	10
CCn1c(CC2CCN(c3ccnc4ccccc34)CC2)nn(C)c1=O	-3
O=C(c1cn[nH]n1)N1CCCC1c1nc2ccc(F)cc2[nH]1 (stereo unspecified)	14
COc1ccccc1NC(=O)N1CCCCN2[C@@H](CO)[C@@H](c3ccc(-c4cccc(C#N)c4)cc3)[C@@H]2C1	-51
O=C(CCSc1ccc2c(c1)OCCO2)N1CCCn2cncc2C1	6
Cc1cc(-c2cc3c(n(Cc4cccnc4)c2=O)CCN(C(=O)C2CCOC(C)(C)C2)C3)ccc1F (stereo unspecified)	-7
C=CCN1CCN(S(=O)(=O)c2cn(C)cn2)Cc2ccc(C)nc21	7
O=C1N[C@H](Cc2ccccc2)COCc2cn(nn2)CC[C@@H]1Cc1cccc(F)c1	24
CCc1ccccc1NC(=O)c1nc(Nc2ccc(C)cc2)c2ccccc2n1	-86*
O=C(c1cnccn1)N1CCC(c2nc3ccc(-c4ccccc4)cn3n2)CC1	-5
C=CCN(c1ccc(C(=O)O)cc1)S(=O)(=O)c1ccc(NC(=O)OC)cc1	6
CCC(=O)Nc1ccc(S(=O)(=O)N2CCC3(CC2)Nc2cc(C)ccc2-n2cccc23)cc1	-2
O=C(Cn1ncc2c(N3CCN(c4ccccc4)CC3)ncnc21)NC1CCCCCC1	98
O=C(Nc1cccc(F)c1)C1CCC2(CN(C(=O)CCO)C2)O1 (stereo unspecified)	6
Cc1ccc2c(c1)cc(S(=O)(=O)c1ccccc1)c(=O)n2CC(=O)NCc1ccc2c(c1)OCO2	-17
Cc1oc(-c2ccc(C(=O)NCCc3ccccc3)cc2)nc1CN1CCN(c2ccccc2)CC1	-59
CCCNC(=O)N1[C@H](C#N)[C@@H](c2ccccc2-c2ccccc2F)[C@H]1CO	27
Cc1ccc(-c2coc(-c3ccc(NC(=O)Nc4ccccc4)cc3)n2)c(C)c1	1
CCC(=O)N1CC[C@H](OCc2csc(C)n2)[C@@H](Cc2ccccc2)C1	-9
COc1ccccc1N1CCN(CCN2C(=O)CC3(CCCC3)CC2=O)CC1	9&11
O=C(c1ccc(Cl)c(Cl)c1)c1nccn1Cc1ccc(Cl)cc1	64
CSc1cccc(NC(=O)c2cncc(NS(=O)(=O)c3ccc(Br)cc3)c2)c1	-15
O=C(O)C[C@@H]1CC[C@@H]2[C@H](COC[C@@H](O)CN2S(=O)(=O)c2ccc(Oc3ccccc3)cc2)O1	-11
C=C(C)C1CC=C(CO)CC1 (stereo unspecified)	10&14
CCOCC1CN(C(=O)c2ccsc2)Cc2nn(C)cc21 (stereo unspecified)	i
Cc1ccc2c(n1)N(C)CCN(C(=O)[C@H]1CCCO1)C2	-31
O=c1c2ccccc2nc2n1CCN(Cc1ccccc1)CC2	16
O=C(c1ccn(-c2ccc3ccc(-c4ccccc4)cn23)n1)N1CCCO1	31
CC(=O)c1ccc(C#CC(C)(C)O)s1	-22
O=C1CCCN1CCn1ccnc1-c1ccncc1	3
CC(C)(O)C#Cc1ccc(CN2CCC(NS(C)(=O)=O)CC2)cc1	-3
O=C(O)c1cncc(-c2cccc(-c3ccn[nH]3)c2)c1	88
Cc1[nH]cnc1-c1nccn1CCc1c[nH]c2ccccc12	5
C[C@H](Cc1cc2c(c(C(N)=O)c1)N(CCCO)CC2)NCCOc1ccccc1OCC(F)(F)F	11
COc1ccc2nc(CCN(C)C(=O)CC3COCCN3)[nH]c2c1 (stereo unspecified)	8
COC(=O)[C@@H]1C[C@@H](N(C)C)CN1C(=O)c1cc(C)nc2c1cnn2C(C)C	1
COc1ccc(CN2C(=O)CO[C@H]3CN(C(=O)NC4CC4)C[C@@H]32)cc1	16
Cc1ccc(C(=O)Nc2c(C(=O)N3CCN(c4ncccn4)CC3)[nH]c3ccccc23)cc1	-7
Cc1nn(C)c(C)c1-c1cc(C(=O)N2CCC(O)(CN(C)C)C2)n(C)n1 (stereo unspecified)	3
O=C(CSc1n[nH]c(=O)n1-c1ccccc1C(F)(F)F)c1ccc(F)cc1	-29
COc1cc(C(=O)N2CCC3(CC2)NC(=O)c2cc(C)ccc2N3C)cc(OC)c1OC	91
CC1(O)CCOC(=O)C1 (stereo unspecified)	21
COc1ccc2c3c([nH]c2c1)C1(NCC3)C(=O)Nc2ccccc21 (stereo unspecified)	38&7
COc1ncc(CN2CC[C@@H](c3ccc4ccccc4c3)[C@H](O)C2)cn1	1
O=C(c1ccco1)N1C[C@@H]2COC[C@]2(COCC2CC2)C1	-21
Cc1ccc(C(=O)NCCc2sc(-c3ccc(F)cc3)nc2C)cc1	-58
CCS(=O)(=O)Nc1ccc2c(c1)C(=O)N(C)[C@@H]1CC[C@H](CC(=O)NCc3ccccc3F)O[C@H]1CO2	13
O=C(Cc1ccsc1)Nc1ccc(-c2cn3c4c(nnc3n2)CCCC4)cc1	26
COCc1nn(C)c2c1CN(C(=O)c1ccc[nH]1)CC2	-13
Cc1ncc(-c2ccncc2)c(CN(C)C(=O)c2sc(C)nc2C)n1	-6
CCOc1cccc(-c2noc(-c3c(O)c4ccc(F)cc4n(C)c3=O)n2)c1	-30
Cc1oc(-c2ccccc2)nc1CSc1nc2c(c(=O)[nH]1)CN(Cc1ccc(Cl)cc1)CC2	-18
CN1C(=O)CCc2cc(NC(=O)C3CCC3)ccc21	13
NCC1CCC(C(=O)N2CCC(c3ccncc3)CC2)CC1 (stereo unspecified)	-1

(listing goes on)
smiles	Tgondii IFNg
O=C(NCCc1csc(-c2ccc(F)cc2)n1)C1CC1	-6
CCCn1c(=O)c(-c2nc(-c3cccc(F)c3)no2)c(O)c2ccccc21	204
CN(C)CCNC(=O)c1nc2c(o1)CN(C(=O)c1cccc(F)c1)C2	-3
CN1C[C@@H]2C3(CCN(C(=O)C4CCOCC4)CC3)CC[C@]2(C(=O)N2CCCC2)C1	-47
O=C(C[C@H]1CC[C@H]2NC[C@H](O)COC[C@@H]2O1)N1CCc2ccccc2C1	-47
O=C(c1ccccc1)N1CCCC2(C1)Nc1cccnc1NC2=NCc1ccccc1 (stereo unspecified)	-14

Screening results: PubChem, Broad Institute
